VACV mCherry inh = qHTS for Stage-Specific Inhibitors of Vaccinia Orthopoxvirus: mCherry Reporter Primary qHTS. Vaccinia virus mCherry reporter infection, fluorescence; about a quarter of the inactives have no number. Potency, µM (series often up to 36.5 µM), without a hit: top-dose activity change, negative = inhibition, most hits filed as inhibitors. hit rate 0.63% among 310,000; active = well fitted inhibition curve with a large enough effect; inconclusive = small, poorly fitted or top-dose-only effect; inactive = no such curve, though single readings can be large or run the other way; tested in A549 cells; also: nearly all actives have a fitted effect of over 35% in size; inactives centre near -10
VACV Venus inh = qHTS for Stage-Specific Inhibitors of Vaccinia Orthopoxvirus: Venus Reporter Primary qHTS; AID 720580, 2013; hit rate 0.46% among 330,000; Potency, µM (highest dose often 36.5 µM), for the others: top-dose activity change, negative = inhibition, usual class: inhibitors; Vaccinia virus Venus reporter expression, fluorescence; active means well fitted inhibition curve with a large enough effect; inconclusive means small, poorly fitted or top-dose-only effect; inactive means no such curve, though single readings can be large or run the other way; tested in A549 cells; also: nearly all actives have a fitted effect of over 30% in size; inactives centre near -10
The depositor's hits bear a star; i = inactive; ? = inconclusive; . = not tested or not shown. % is scaled to controls: 0 for no effect and ±100 for the full control effect; potency is read from the fitted curve at half-maximal effect.

Fields – VACV mCherry inh | VACV Venus inh
1	CCOc1ccccc1CNC(=O)c1ccc2nc(N3CCC(C)CC3)sc2c1
→ -14.0% | -13.0%
2	CN(CC(=O)Nc1ccc(Cl)cc1)C(=O)c1ccc(COc2ccccc2)cc1
→ ? | ?
3	COc1ccccc1NC(=O)c1ccccc1SC
→ . | -18.4%
4	O=C(Nc1nc2c(F)cc(F)cc2s1)C1CCN(C(=O)c2ccc(F)cc2)CC1
→ i | -2.1%
5	CC(=O)Nc1ccc(NC(=O)C/C(C)=N/NC(=O)COc2cc(C)c(Br)cc2Br)cc1
→ ? | -1.1%
6	COc1ccc2cc3c(N)nn(C(=O)c4ccccc4Cl)c3nc2c1
→ -27.9% | -17.5%
7	Cc1cc(C(=O)NNC(=O)COc2ccccc2Cl)n[nH]1
→ -2.9% | 1.1%
8	COc1ccc(N(C(=O)CCl)C(C(=O)NC2CCCCC2)c2cccnc2)cc1 (centres undefined)
→ 11.2µM* | 2.82µM*
9	Cc1oc(C)c2c(=O)cc(-c3ccc4c(c3)OCO4)cc(OC(=O)c3cccc(Br)c3)c12
→ 3.3% | 7.9%
10	CCc1nnc(NS(=O)(=O)c2ccc(N/C=C\C(=O)c3ccc4ccccc4c3)cc2)s1
→ -5.4% | 8.3%
11	COc1ccc(C(C(=O)NC(C)(C)C)n2c(=O)c(-c3ccccc3)nc3ccccc32)cc1 (centres undefined)
→ 10.2% | -1.9%
12	CC(=O)N1c2ccc(S(=O)(=O)N3CCC(C(=O)NCCc4ccc(Cl)cc4)CC3)cc2CC1C (centres undefined)
→ -0.4% | -23.2%
13	Cc1ccc(NC(=O)c2sccc2C)cc1[N+](=O)[O-]
→ -20.0% | -10.0%
14	COC(=O)c1cc(S(=O)(=O)N2CCN(Cc3ccccc3)CC2)c[nH]1
→ -0.6% | -24.1%
15	C=CCn1c(C)cc(C(=O)COC(=O)COc2ccccc2C#N)c1C
→ -10.9% | -0.5%
16	O=C(CSc1ncn[nH]1)NC1CCCc2ccccc21 (centres undefined)
→ 6.8% | 2.2%
17	Cc1ccc(Cl)cc1N1CCN(C(=O)c2c(C)oc3ncnc(N4CCCCC4)c23)CC1
→ -22.4% | -14.2%
18	COc1cccc(C(=O)C2CCCN(C3CCOCC3)C2)c1 (centres undefined)
→ i | -6.3%
19	Cc1ccc(S(=O)(=O)CCSC(=N)N)cc1
→ ? | ?
20	C/C(=N\NC(=S)NCc1ccccc1)c1ccc(C(C)(C)C)cc1
→ -27.7% | -29.5%
21	Cc1ccnc(NC2c3ccccc3C(=O)N2Cc2ccccc2Cl)c1 (centres undefined)
→ 25.1% | -2.1%
22	CC(C)c1nn2c(=O)cc(COC(=O)c3ccc(NC(=O)c4cccs4)cc3)nc2s1
→ -6.5% | -19.5%
23	O=C1CCN(CCCN2CCC(=O)NC2=S)C(=S)N1
→ -14.8% | 2.5%
24	Clc1ccc2c(c1)N=C(N1CCNCC1)c1ccccc1N2
→ ? | -24.0%
25	Cc1noc(C)c1NC(=O)N(C)C[C@H]1Oc2ccc(NC(=O)Nc3ccc4c(c3)OCO4)cc2C(=O)N([C@H](C)CO)C[C@@H]1C
→ -28.9% | -6.0%
26	COCCNc1nc2c(c(=O)n(C)c(=O)n2C)n1Cc1c(F)cccc1Cl
→ -22.7% | -15.4%
27	O=C(Nc1ccccc1N1CCCC1)C1CCN(S(=O)(=O)c2ccccc2)CC1
→ i | -9.3%
28	CC1=CC(C)C(COC(N)=O)(COC(N)=O)C(C)C1 (centres undefined)
→ . | -11.1%
29	CCN(CC)c1ccc(/C=N/NC(=O)OC)c(O)c1
→ . | -11.9%
30	c1ccc2c3c(ccc2c1)OCC1CONC31 (centres undefined)
→ -11.5% | -4.0%
31	CCC(C)NCCCOc1cc(Cl)ccc1Cl (centres undefined)
→ -22.9% | -21.3%
32	CCN1C(=O)c2ccccc2S(=O)(=O)c2ccc(C(=O)NCc3cccnc3)cc21
→ -7.8% | -10.1%
33	CCOC(=O)C1CCN(C(=O)c2ccc(OCC)c(OCC)c2)CC1
→ . | -21.9%
34	O=C(c1ccco1)N1CCN(C(=O)c2snc3ccc(Cl)cc23)CC1
→ . | -9.1%
35	O=C(c1ccccc1)N1CCN(C(=O)c2nn3c(C(F)(F)F)cc(-c4ccco4)nc3c2Br)CC1
→ -0.4% | -12.4%
36	CN(C)CCCNc1ccc(S(N)(=O)=O)cc1[N+](=O)[O-]
→ -2.0% | -0.7%
37	Cc1cc(C(=O)N/N=C/c2cccnc2)n[nH]1
→ -0.5% | -8.2%
38	O=C(CCCn1c(SCc2cc(=O)n3ccccc3n2)nc2ccccc2c1=O)NCC1CCCO1 (centres undefined)
→ -14.5% | -12.2%
39	Cc1nn2c(C)c(C(=O)NCc3cccc(Br)c3)cnc2c1-c1ccccc1
→ -13.5% | -8.8%
40	NC(=O)c1nsc(C(=O)N(Cc2cccnc2)C(C(=O)NCc2ccc(F)cc2)c2ccc(F)cc2)c1N (centres undefined)
→ ? | -28.5%
41	COc1ccc(C(=O)C2CCCN(C3Cc4ccccc4C3)C2)c(OC)c1 (centres undefined)
→ -15.1% | 9.4%
42	CC(=O)Cc1nsc(NC(=O)c2ccc(Br)o2)n1
→ -9.6% | 3.8%
43	CN(C(=O)COc1nnc(-c2cccs2)c(-c2cccs2)n1)c1ccccc1
→ . | -22.5%
44	COc1ccc(Cc2nnc(NC(=O)CSc3ccc(C)cc3)s2)cc1
→ -20.8% | -8.7%
45	CC(=O)C1=C(O)C(=O)N(c2cccnc2)C1c1cccc([N+](=O)[O-])c1 (centres undefined)
→ 2.3% | 18.8%
46	CCC(=O)Nc1cc(NC(=O)CSc2ncc(-c3ccc(F)cc3)n2Cc2ccco2)ccc1C
→ -28.3% | -21.5%
47	CN(C(=O)CSc1nc2cc(C(=O)O)ccc2c(=O)n1Cc1ccccc1)C1CCS(=O)(=O)C1 (centres undefined)
→ i | 3.3%
48	COc1ccccc1NC(=O)N1CCCC(CNC(=O)c2ccccc2Cl)C1 (centres undefined)
→ i | -11.3%
49	CCOC(=O)c1ccc2[nH]c(C)cc(=O)c2c1
→ . | -19.9%
50	COc1ccc(CCNC(=O)CSc2nnc(CNC(=O)c3cccs3)o2)cc1OC
→ -15.6% | -11.6%
51	S=C(Nc1ccc(Nc2ccccc2)cc1)NC1CCCCCC1
→ ? | -24.3%
52	COc1ccc(Cl)cc1NC(=O)c1c(NCc2ccc(C)o2)sc2c1CCC(C)C2 (centres undefined)
→ -12.7% | -17.1%
53	O=C(CN1CCN(c2ccc(O)cc2)CC1)N(C1CC1)C1CCS(=O)(=O)C1 (centres undefined)
→ -11.9% | 5.2%
54	COc1ccc(S(=O)(=O)c2cnc3cc(OC)c(OC)cc3c2N2CCCC(C)C2)cc1 (centres undefined)
→ ? | -29.5%
55	O=C(Nc1ccc(Br)cc1F)N1CCC(CN2CCCC2)CC1
→ -13.1% | -6.3%
56	CN1CCN(c2ccccc2NC(=O)COc2ccc(Cl)cc2)CC1
→ -11.9% | -5.8%
57	CCCCCCSc1ccc([C@@H]2[C@H]3C(=O)N(C)C(=O)[C@H]3[C@]3(C(=O)OC)CCCCN23)cc1OC
→ -20.1% | -23.4%
58	O=C(CSc1ccccc1)N/N=C/c1ccccc1O
→ ? | -13.8%
59	O=C(NCCc1ccccc1)c1ccc(CSc2nc3cccnc3n2Cc2ccc(F)cc2)cc1
→ ? | ?
60	COc1ccc(Nc2ncnc3c2cnn3-c2ccccc2)cc1OC
→ -12.6% | ?

Next structures follow.
Fields – VACV mCherry inh | VACV Venus inh
61	COc1ccc2[nH]c3c(c2c1)CCN1C(=O)N([C@@H](C)C(=O)NCc2ccc(C)cc2)C(=O)[C@]31C
→ -0.3% | 4.6%
62	O=c1ccnc(Nc2ccc3c(c2)OCCO3)[nH]1
→ -14.4% | 0.1%
63	Cc1cc2ncn(C3CC(=O)N(Cc4ccccc4)C3=O)c2cc1C (centres undefined)
→ i | -3.1%
64	O=C(Nc1ccc(N2CCOCC2)c(Cl)c1)c1cccc(F)c1
→ . | -12.2%
65	CCC(C)NS(=O)(=O)c1ccc(OCC(=O)NCc2ccc(OC)cc2)cc1 (centres undefined)
→ i | 4.3%
66	COc1cccc(N2CCN(CC(=O)Nc3nc(C)c(C(=O)N(C)C)s3)CC2)c1
→ i | -1.1%
67	CCOC(=O)c1ccc(NC(=O)c2ccc(NC(=O)C3CCCO3)cc2)cc1 (centres undefined)
→ i | -3.6%
68	COc1ccc(OC)c2c1cc(C(=O)N[C@@H](Cc1ccccc1)C(=O)O)n2C
→ i | -8.5%
69	CC(C)[C@@H](C(=O)NC1CCN(Cc2ccccc2)CC1)N1C(=O)N2CCc3c([nH]c4ccccc34)[C@@]2(C)C1=O
→ -21.0% | -20.3%
70	CCOc1ccc(NC(=O)CCNC(=O)Cn2cnc3ccccc3c2=O)cc1
→ i | -6.6%
71	CC(c1ccon1)N(C)C(=O)c1cccc(OC2CCN(S(C)(=O)=O)CC2)c1 (centres undefined)
→ -4.3% | -20.6%
72	CCc1ccc([C@@H]2C[C@H]3[C@@H](CN2S(=O)(=O)c2ccc(C)cc2)C(=O)C[C@@H](c2ccc(Cl)cc2)N3S(=O)(=O)c2ccccc2C)cc1
→ i | -11.3%
73	CC1CC2(NC(=O)NC2=O)C(C)CN1C (centres undefined)
→ . | -7.0%
74	Cc1nn(-c2ccccc2)c2c1CC1(C(=O)N(C)C(=O)N(C)C1=O)C1CCCCN21 (centres undefined)
→ -5.2% | 3.1%
75	O=[N+]([O-])c1ccc(N=Cc2c(O)ccc3ccccc23)cc1
→ ? | -11.4%
76	Cc1cccc(NC(=O)NCCn2c(=O)oc3ccc(C)cc32)c1
→ -13.6% | -2.7%
77	CC(NC(=O)CCCC1=NS(=O)(=O)c2ccccc2N1)c1ccccc1 (centres undefined)
→ -1.7% | -1.4%
78	O=C1N=C(N2CCc3ccccc3C2)S/C1=C\c1ccc(O)cc1
→ -8.5% | 1.8%
79	N#CCCN(C(=O)COc1ccc(Cl)cc1Cl)c1ccccc1
→ i | -2.5%
80	Clc1ccc(CCNc2ncnc3nc[nH]c23)cc1
→ ? | ?
81	Cc1cc(C)c(NC(=O)CNC(=O)c2cc([N+](=O)[O-])ccc2N2CCOCC2)c(C)c1
→ -1.4% | -4.6%
82	C/C(=N\NC(=O)c1ccncc1)C12CC3CC(CC(C3)C1)C2
→ -19.7% | -1.2%
83	Cc1c(NC(=O)CSc2nc3ccccc3n2C)c(=O)n(-c2ccccc2)n1C
→ . | -22.4%
84	CC(=O)Nc1cccc(NC(=O)Cc2nc(-c3ccccc3)sc2-c2ccc(C)cc2)c1
→ ? | -23.1%
85	Cc1ccccc1C(=O)NC1CC2CCCC(C1)N2CC(C)C (centres undefined)
→ i | -12.9%
86	COc1ccc2c(C)cc(SCC(=O)Nc3nsc(-c4ccc(C(C)(C)C)cc4)n3)nc2c1
→ i | 5.8%
87	CCN(C(=O)c1ccc2c(Cl)c3c(nc2c1)CCC3)c1ccc(C)c(C)c1
→ -7.3% | -12.5%
88	CCCSc1nc2c(cnn2-c2ccc(C)cc2)c(=O)[nH]1
→ ? | 28.2µM*
89	Cc1ccc(S(=O)(=O)Nc2nc3ccccc3nc2NCC2CCCO2)c(C)c1 (centres undefined)
→ i | -1.3%
90	CCN1CCN(CCn2c(=S)[nH]c3ccccc3c2=O)CC1
→ -8.8% | -4.0%
91	Cc1cccc(NS(=O)(=O)Cc2ccccc2)n1
→ . | -0.9%
92	C=CCCC1(CC)C(=O)NC(=S)NC1=O
→ -11.7% | -8.5%
93	O=C(CN1N=C(c2ccccc2)CCC1=O)NCCCN1CCc2ccccc2C1
→ -16.3% | -13.6%
94	CC(=O)N1CCN(c2ccc(NC(=O)c3ccco3)cc2Cl)CC1
→ -8.6% | -11.8%
95	C#Cc1ccc([C@H]2C=C(C(=O)N3CCN(Cc4ccccc4)CC3)O[C@@H](OCC)[C@@H]2CCCO)cc1
→ -19.9% | -13.7%
96	COc1ccc(CNS(=O)(=O)c2ccc3c(c2)NC(=O)C(C)C(=O)N3)cc1 (centres undefined)
→ -18.3% | -13.8%
97	CCOC(=O)N1CCN(c2nc(-c3ccccc3)c3ccccc3n2)CC1
→ i | -6.2%
98	CCCCC(=O)N(C)c1c(C)nc2ccc(C(=O)Nc3cccc(NS(C)(=O)=O)c3)cn12
→ -3.9% | -0.7%
99	O=C(O)Cn1cc(/C=C2/NC(=O)N(c3ccc(Cl)cc3)C2=O)c2ccccc21
→ 9.0% | 2.4%
100	COC(=O)C1CCN(Cc2cc(=O)oc3cc(OC)ccc23)CC1
→ . | -9.8%
101	CCOc1cc(NC(=S)NCC2CCCO2)c(OCC)cc1NC(=O)c1ccccc1F (centres undefined)
→ -18.6% | -9.9%
102	COC(=O)[C@@H](c1ccccc1)C1CCCCN1 (some centres undefined)
→ -1.4% | -11.4%
103	CC1(C(=O)Nc2cccc(C#N)c2)CCN1C(=O)c1ccccc1CCc1ccccc1 (centres undefined)
→ 16.6% | -8.6%
104	Cc1ccc(-c2noc(-c3cccs3)n2)cc1
→ -9.7% | -8.9%
105	Cc1cnc(NC(=O)CSc2nnc(Cc3ccccc3)n2C)s1
→ -7.8% | -8.7%
106	CCOc1ccc(NC(=O)Cn2c(=O)n(Cc3nc(-c4ccccc4)no3)c(=O)c3cc4c(cc32)OCO4)cc1
→ -5.0% | -7.1%
107	CC#CCOCC1CN(C)C(=O)O1 (centres undefined)
→ i | -2.6%
108	Cc1noc(C)c1NC(=O)NC(c1ccccc1)c1ccccc1
→ -0.3% | -8.6%
